Screens from PubChem.
Vif A3G = inhibitors of Vif binding to APOBEC3G peptide, primary screen, biochemical, TR-FRET, GST-Vif 1-94, biotin-A3G peptide, dose response retest (AID 1117319); Virion infectivity factor (Human immunodeficiency virus type 1 group M subtype B (isolate …; TR-FRET GST-Vif / biotin-A3G peptide binding; higher % means a stronger effect; test concentration not given here; strong numbers were not always called active; inhibition, %, or IC50 in µM where a hit was titrated; 260,000 tested, 0.57% active;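 active = above the screen mean plus three standard deviations and confirmed in dose response; inconclusive = results disagree or hit not tested in dose response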;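 also: Vif residues 1-94 fused to GST binding biotinylated APOBEC3G peptide 110-148; 0% = full assay without inhibitor and 100% = GST in place of GST-Vif; retest series ran down from 100 µM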
HNF4A DNA FP = change in binding of human HNF4A to DNA, primary screen, biochemical, fluorescence polarization, FITC-DNA; 360,000 tested, 0.3% active; activity change, % at 10 µM; 1 h; in the data active = activity change above about 30%, passing the limit was not always enough;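 also: controls were the assay level and a saturating level of protein; the project sought stronger binding though the title names inhibitors; some compounds called inactive have numbers as strong as hits; positive values seem to mean higher polarization but the record does not say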
Target sequence (P41235 whole entry, looked up): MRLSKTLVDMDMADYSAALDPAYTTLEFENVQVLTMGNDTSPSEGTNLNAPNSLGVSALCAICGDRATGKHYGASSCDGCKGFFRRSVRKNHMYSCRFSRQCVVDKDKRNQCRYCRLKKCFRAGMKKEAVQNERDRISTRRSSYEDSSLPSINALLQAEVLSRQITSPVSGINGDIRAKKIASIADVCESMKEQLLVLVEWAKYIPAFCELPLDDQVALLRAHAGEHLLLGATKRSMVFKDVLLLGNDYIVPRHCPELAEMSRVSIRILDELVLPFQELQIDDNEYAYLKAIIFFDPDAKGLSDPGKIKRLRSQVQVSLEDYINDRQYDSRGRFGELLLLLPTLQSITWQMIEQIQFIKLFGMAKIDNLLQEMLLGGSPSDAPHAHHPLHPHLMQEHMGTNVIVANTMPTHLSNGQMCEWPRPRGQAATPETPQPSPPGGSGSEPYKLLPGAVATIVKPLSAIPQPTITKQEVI
E coli growth = E. coli growth inhibition, primary screen, OD600. Escherichia coli growth, 23 h; hits give low values. OD600 absorbance (concentration not given with the values). 330,000 tested, 0.21% active. AID 1053175, 2014;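 active = OD600 absorbance below the run mean of sample wells minus 3.6 SD, in any replicate, cut at about 0.56 in these data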;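 also: stock transfer was 300 nL into about 60 µL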
UCH37 DUB inh = inhibitors of human UCH37 deubiquitinase, primary screen, biochemical, Ub-AMC cleavage, fluorescence; Ubiquitin carboxyl-terminal hydrolase isozyme L5 (Homo sapiens), Q9Y5K5; purified proteasome/UCH37; inhibition, % (test concentration not listed); 330,000 tested, 0.33% active; AID 588478, 2011;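 active = mean of two replicates above 20%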;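 also: 0% = compound-free wells with enzyme and 100% = wells lacking proteasome; stock transfer was 100 nL into about 20 µL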
Target sequence (Q9Y5K5 whole entry, looked up): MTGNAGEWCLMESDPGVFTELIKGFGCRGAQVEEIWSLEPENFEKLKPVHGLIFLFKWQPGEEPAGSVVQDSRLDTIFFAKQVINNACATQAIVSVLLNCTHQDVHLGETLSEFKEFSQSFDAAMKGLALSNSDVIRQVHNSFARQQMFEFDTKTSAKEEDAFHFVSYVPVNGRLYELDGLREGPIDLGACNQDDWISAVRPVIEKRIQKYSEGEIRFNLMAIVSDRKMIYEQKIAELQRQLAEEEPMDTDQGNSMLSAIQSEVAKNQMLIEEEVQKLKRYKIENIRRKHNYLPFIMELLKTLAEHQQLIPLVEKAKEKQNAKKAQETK
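System: Proteasome-associated human UCH37 deubiquitinase; Input: 0.15 nM proteasome in added enzyme buffer; Also added: Ub-AMC substrate from 1 µM stock; Incubation: 30 min compound-proteasome preincubation then 25 min substrate reaction, room temperature; Detection: fluorescence, ex 355 nm, em 460 nm; Read-out: % inhibition of Ub-AMC cleavage fluorescence; Benchmarks: no-proteasome and no-compound wells.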
LANA-H2A inh = blockers of LANA interaction with H2A/H2B – biochemical, FP readout, HTS, primary screen. cell-free LANA-H2A/H2B peptide, fluorescence polarization. inhibition, % (no concentration beside the values). 320,000 tested, 0.6% active. AID 2629, 2010; in the data active = inhibition mostly above about 10%, no sharp cut-off; inactive = mostly below about 6.7%;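 also: stock transfer was 7.5 nL into about 10 µL; 0% = median of vehicle wells and 100% = median of positive control wells; one replicate is shown; the record names a cut of 25% in any replicate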
B2AR ag = beta2AR agonists driving receptor internalization, primary screen, cell-based, FAP fluorogen, flow cytometry; Beta-2 adrenergic receptor (Homo sapiens), P07550; Am2.2-beta2AR cells; reference of the scale not given here; response, % (concentration not given with the values); 340,000 tested, 0.43% active; AID 504454, 2011;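 active = response above a set limit, near 3 SD of response in nonfluorescent compounds, cut at about 42% in these data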;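 also: stock transfer was 100 nL into about 11 µL; a reference agonist was the positive control; negative values mostly stem from fluorescent compounds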
Bfl-1 A1 inh = caspase 3/7 activation in MEF A1-2A-BIM cells, primary screen, A1 inhibitor project, cell-based, luminescence, HTS; Caspase-Glo 3/7 luminescence, 3 h; percent of clofoctol response, vehicle zero; caspase activation, % (concentration not given with the values); 330,000 tested, 0.066% active; AID 2462, 2010;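 active = over half of replicate activation scores above 10%, or exactly half above 10 with the replicate mean above 10; inconclusive = replicate mean below 10 yet half the replicates above 10; inactive = over half of replicates below 10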;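 also: wells of about 30 µL received 50 nL stock; many hits fall short of the cut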
* = called active by the depositor; u = inconclusive; x = not tested or not shown.

item	SMILES	LANA-H2A inh	Bfl-1 A1 inh	Vif A3G	E coli growth	UCH37 DUB inh	B2AR ag	HNF4A DNA FP
1	C[C@@H](C(=O)Nc1ccc(OC(F)F)c(Cl)c1)N1C(=O)C2CC=CCC2C1=O (stereo partly drawn)	-1.1	1.3	-3.5%	0.682	4.4	-4.1	1.4
2	COc1ccc(Br)cc1/C=N/NC(=O)CNC(=O)c1cccnc1	-7.3	0.1	-15.1%	x	x	7.9	2.4
3	CC(=O)N(Cc1ccccc1)C(CC(=O)NCc1ccccc1)C(=O)O (stereo not drawn)	x	x	2.0%	0.699	2.6	-0.3	2.7
4	CCCC(=O)Nc1nn(CC)c2nc3ccc(C)cc3cc12	2.7	-0.1	-3.0%	x	x	-1.2	-2.6
5	O=P(O)(O)c1ccccc1OCCCCCOc1ccccc1P(=O)(O)O	2.3	0.8	1.0%	0.689	0.8	3.0	-7.6
6	COC(=O)C1=C(C)NC(C)=C(C(=O)OC)C1C(=O)OCc1nc2cc(C(=O)OC)ccc2c(=O)[nH]1	4.5	0.4	-5.8%	0.691	-11.7	14.8	1.4
7	Nc1ccccc1C(=O)NNc1c2ccccc2nc2ccccc12	-0.2	0.0	1.4%	0.675	3.4	-0.3	10.0
8	O=C(Nc1nc(-c2cc(Cl)sc2Cl)cs1)c1cccs1	-2.5	0.2	1.1%	0.672	0.8	3.7	-1.8
9	Cc1cccc2cc(COC(=O)c3ccccn3)c(=O)[nH]c12	1.0	0.5	7.9%	0.699	1.5	-3.2	2.3
10	COc1ccc(/C=c2\s/c(=C(/C#N)C(=O)NCc3ccco3)n(-c3ccccc3)c2=O)cc1	1.0	-1.0	x	x	x	-3.8	5.5
11	COc1ccc(-c2ccc(SCC(=O)NCC3CCCO3)nn2)cc1OC (stereo not drawn)	-1.6	-0.7	7.8%	0.668	2.6	-1.0	7.8
12	CC(=O)N1c2ccccc2NC2=C(C(=O)CCC2)C1c1ccco1 (stereo not drawn)	0.7	-0.2	x	0.716	4.8	3.8	1.8
13	Cc1cc(-c2nnc(SCC(=O)Nc3ccc(S(N)(=O)=O)cc3)n2N)n[nH]1	3.4	0.0	x	0.625	2.1	1.6	0.4
14	COc1ccc2cc(C(c3nnnn3C(C)(C)C)N3CCc4ccccc4C3)c(=O)[nH]c2c1 (stereo not drawn)	-5.1	0.6	4.2%	x	x	x	x
15	Cc1nc(C(=O)Nc2cccc(Cl)c2)nn1-c1cc(OC(C)C)c(Cl)cc1Cl	-0.8	0.1	-1.8%	0.739	4.3	33.7	3.2
16	Cc1ccc(N(Cc2ccccc2)C(=O)c2cccc(S(=O)(=O)N3CC(C)OC(C)C3)c2)cc1 (stereo not drawn)	3.3	-0.5	6.0%	0.715	1.6	4.7	3.3
17	Cc1cccc(Cn2c(Sc3nc(C)cs3)nc3c2c(=O)[nH]c(=O)n3C)c1	-2.7	-1.2	1.9%	0.71	0.6	-10.3	0.4
18	CCC(=O)NCc1ccc(-c2nc3ncccc3o2)cc1	1.4	0.0	x	0.675	-1.8	-6.9	-1.8
19	COc1ccc2c(c1)c(=O)oc1cc(OCC(=O)N3CCc4ccccc4C3)ccc12	1.0	-0.2	u	0.678	-187.5	1.1	-30.1
20	CCOc1ccc(N(CC(=O)Nc2ccc(Br)cc2)S(C)(=O)=O)cc1	-8.1	0.2	-3.3%	0.672	1.3	7.2	-2.9
21	Cn1c(=O)n(C)c2cc(S(=O)(=O)Nc3ccccc3O)ccc21	-1.4	-1.0	0.1%	0.628	1.0	-2.3	-5.0
22	COc1ccc(C(=O)N2CCOCC2)cc1S(=O)(=O)N1CCCc2ccccc21	-3.7	0.3	0.3%	0.706	2.8	5.7	-1.8
23	NC(=O)CSc1nc2ccccc2c(=O)n1-c1ccccc1	3.4	0.1	x	0.661	1.3	-8.5	3.2
24	COc1cccc(OCC(=O)O/N=C(\N)c2ccc(OC)c(OC)c2)c1	-2.1	-0.8	0.9%	0.673	2.1	3.2	4.2
25	N#CC1(Nc2ccccc2)C(=O)Nc2ccccc21 (stereo not drawn)	-1.1	0.5	4.0%	0.719	4.8	2.6	1.6
26	C=CCNC(=S)NNC(=O)C(CCCC)CC(C)(C)O (stereo not drawn)	0.5	0.6	-7.0%	0.751	-3.0	3.6	-0.8
27	Cc1c(CCOC(=O)c2ccccc2)sc[n+]1Cc1ccccc1	1.2	-0.2	x	0.66	0.1	5.0	-0.3
28	Cc1nc(N)[nH]c(=O)c1Oc1cccc(C(F)(F)F)c1	-1.9	1.4	-6.5%	0.628	-0.9	-7.2	5.5
29	O=S(=O)(Nc1ccc(S(=O)(=O)Nc2ncccn2)cc1)c1ccccc1	0.5	0.0	x	0.682	5.5	10.0	-0.8
30	COc1ccccc1CCC(=O)OCC(=O)NCc1ccc(OC)c(OC)c1	0.8	u	0.6%	0.685	3.4	-6.3	4.6
31	Cn1c(=O)c2c(nc(NCc3ccco3)n2CCc2ccccc2)n(C)c1=O	5.6	0.0	7.8%	0.702	-1.8	-13.3	-3.8
32	CC(=O)Nc1ccc(S(=O)(=O)Nc2nccs2)cc1	3.6	0.1	-1.8%	0.73	-1.5	-5.5	-0.2
33	COc1ccc(/C=N/NC(=O)c2ccc3nc[nH]c3c2)c(OC)c1	1.4	-1.1	x	x	x	13.4	-0.5
34	Fc1cccc(CN2CCN(C(=S)NCCc3ccccc3)CC2)c1	-0.2	0.0	4.3%	0.628	3.4	-6.5	0.2
35	O=C(/C=C/c1ccc(Cl)c([N+](=O)[O-])c1)Nc1ccc(N2CCCC2)c(Cl)c1	1.2	0.6	-1.4%	0.729	4.3	7.4	2.6
36	O=C(NCc1cccs1)C(=O)c1c[nH]c2ccccc12	1.9	1.2	14.7%	0.65	3.7	2.4	1.1
37	Cc1cc(C(=O)NNc2c(Cl)cccc2Cl)n(C(C)(C)C)n1	1.7	0.8	3.1%	0.659	0.7	-1.5	7.0
38	O=S(=O)(Cc1ccccc1Cl)NCc1ccccc1	-7.9	0.7	3.2%	0.701	1.3	10.6	-1.0
39	O=C(COc1cccnc1[N+](=O)[O-])Nc1ccc(F)cc1	2.7	-0.8	1.0%	0.7	1.3	-1.7	-0.2
40	O=S(=O)(c1cc(Cl)ccc1Cl)N1CCN(Cc2ccc3c(c2)OCO3)CC1	-4.1	-0.3	13.4%	0.742	2.5	-2.0	-1.7
41	O=C(Cn1c(=O)n(Cc2ccco2)c(=O)c2c3c(sc21)CCCCC3)Nc1ccccc1	-5.6	-1.8	u	0.755	2.3	0.9	-22.5
42	CC1CCN(C(=O)Cn2nnc(-c3ccc(C(C)C)cc3)n2)CC1	4.0	1.2	x	0.697	5.8	11.0	0.3
43	O=C(O)c1ccnc(SCC(=O)c2ccccc2)c1	1.8	-8.9	1.4%	0.708	0.0	-1.9	-1.3
44	O=C(CCl)Nc1ccc(N2CCCCCC2)cc1	0.9	-0.1	u	0.742	4.4	3.9	-0.2
45	O=C(O)CCCC(=O)N1CCN(C(c2ccccc2)c2ccccc2)CC1	-0.2	0.3	x	0.703	-0.4	1.7	2.8
46	Cc1ccc(NC(=O)N2CCN(C/C=C/c3ccccc3)CC2)cc1	-0.4	0.5	x	0.645	4.5	1.8	0.6
47	CC1Cc2ccccc2N1S(=O)(=O)c1ccc(Cl)nc1 (stereo not drawn)	-2.9	-0.9	-7.7%	0.687	1.1	-0.7	1.2
48	Cc1cc(N2C(=O)C(O)=C(C(=O)c3ccc(C)o3)C2c2cccs2)no1 (stereo not drawn)	5.9	-0.3	16.8%	0.745	0.4	2.8	-0.7
49	CCOc1ccc(C(=O)Nc2cc(C)on2)cc1	-1.3	u	17.8%	0.715	4.2	-11.5	3.9
50	CC(=O)N1c2ccc(C)cc2C(c2ccccc2)CC1C (stereo not drawn)	-10.0	0.8	4.9%	x	x	-0.4	-3.4
51	O=C(NCCOc1cccnc1)c1ccc(OC2CCN(Cc3ccccn3)CC2)cc1	1.6	1.1	x	x	x	-20.2	11.3
52	O=C(/C=C/c1cc(Br)ccc1F)OCC(=O)N1CCOCC1	-4.5	-1.3	x	0.709	-1.8	-3.3	5.0
53	O=C(NCc1cccnc1)c1ccc2c(c1)C(=O)N(Cc1ccccc1)C2=O	-6.6	0.5	4.3%	0.662	2.7	0.6	-4.2
54	CC1(C)CC(NC(=S)Nc2ccc([N+](=O)[O-])cc2)CC(C)(C)N1	6.8	0.5	x	0.695	2.2	-1.6	-2.1
55	CC(=O)Nc1nc(C)nc(C)c1C(C)=O	-3.7	-0.7	-2.4%	0.766	1.0	2.7	-2.7
56	O=C(c1cc2nc(-c3ccccc3)cc(C(F)(F)F)n2n1)N1CCOCC1	4.7	0.0	-1.5%	0.737	-8.9	-9.5	-2.5

(further entries)
item	SMILES	LANA-H2A inh	Bfl-1 A1 inh	Vif A3G	E coli growth	UCH37 DUB inh	B2AR ag	HNF4A DNA FP
57	CCc1ccc(/C=N/NC(=O)c2ccc(OC3CCCC3)cc2)s1	-3.4	-0.3	-3.4%	x	x	0.9	0.5
58	CC(C)C1CC(O)(C2(O)CCCCC2)ON1 (stereo not drawn)	3.4	0.1	-6.9%	0.746	-2.0	-8.5	-2.0
59	CN(C)S(=O)(=O)c1ccc(NC(=O)c2c(F)cccc2Cl)cc1	2.9	0.3	1.8%	0.736	1.0	8.3	-3.0
60	Cc1cccc(C(=O)NCC(=O)OCC(=O)N2CCCCC2)c1	2.3	0.3	-5.7%	0.683	-0.7	-2.7	1.6
61	CCOC(=O)C1CCCN(C(=O)c2ccc(Cn3c(=S)[nH]c4cc(C(=O)OC)ccc4c3=O)cc2)C1 (stereo not drawn)	-2.7	-2.1	13.0%	0.701	3.4	15.9	-5.6
62	CCOC(=O)c1ccc(-c2c(-c3ccccc3OC)oc3ccccc23)cc1F	4.5	-1.0	x	0.737	-44.0	-0.1	2.5
63	NS(=O)(=O)c1ccc(NC2=CC(c3ccc(F)cc3)N(c3ccc(S(N)(=O)=O)cc3)C2=O)cc1 (stereo not drawn)	-6.3	1.5	x	0.704	-2.8	10.5	0.6
64	CN(CC(=O)N1CCN(c2ccc(F)cc2)CC1)S(=O)(=O)c1ccc2c(c1)c(=O)n(C)c(=O)n2C	4.5	1.7	10.1%	0.695	4.9	-6.0	-3.6
65	CN1c2ccsc2/C(=N/Nc2ccc(F)cc2)CS1(=O)=O	3.9	-0.1	12.5%	x	x	-0.8	2.8
66	Cc1ccc(OC(=S)Nc2ccccc2)c(C)c1	-7.6	0.7	-2.0%	0.643	2.3	-2.2	1.1
67	COC(=O)Cc1[nH]nc2c1C(c1c[nH]c3ccccc13)C(C#N)=C(N)O2 (stereo not drawn)	-0.5	-0.2	1.7%	0.709	-1.3	-4.5	0.9
68	CC(C)CC(COCc1ccc(Cl)cc1)N1CCN(C(=O)c2ccc(Cl)cc2Cl)CCC1=O (stereo not drawn)	1.0	1.4	-4.7%	0.7	1.7	5.5	-3.8
69	Cc1ccc(S(=O)(=O)N2CCC(C(=O)Nc3nnc(C4CCCC4)s3)CC2)cc1	-2.3	0.6	-0.9%	0.689	1.8	11.8	1.9
